# KCNQ2 block – KCNQ2 potassium channel inhibitors, primary screen, cell-based, CHO-K1, FluxOR thallium flux, B-score (AID 2156) | Potassium voltage-gated channel subfamily KQT member 2 (Rattus norvegicus), O88943 | 20 min; hits give low values; only compounds with negative scores are shown here; some inactives read as strong as hits | B-score at 10 µM | 1.1% of 310,000 active;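 active means fluorescence ratio B-score at most minus 3 library SDs, with starting brightness B-score within 2 library SDs, cut at about -5.5 in these data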
# Target sequence (O88943 whole entry, looked up): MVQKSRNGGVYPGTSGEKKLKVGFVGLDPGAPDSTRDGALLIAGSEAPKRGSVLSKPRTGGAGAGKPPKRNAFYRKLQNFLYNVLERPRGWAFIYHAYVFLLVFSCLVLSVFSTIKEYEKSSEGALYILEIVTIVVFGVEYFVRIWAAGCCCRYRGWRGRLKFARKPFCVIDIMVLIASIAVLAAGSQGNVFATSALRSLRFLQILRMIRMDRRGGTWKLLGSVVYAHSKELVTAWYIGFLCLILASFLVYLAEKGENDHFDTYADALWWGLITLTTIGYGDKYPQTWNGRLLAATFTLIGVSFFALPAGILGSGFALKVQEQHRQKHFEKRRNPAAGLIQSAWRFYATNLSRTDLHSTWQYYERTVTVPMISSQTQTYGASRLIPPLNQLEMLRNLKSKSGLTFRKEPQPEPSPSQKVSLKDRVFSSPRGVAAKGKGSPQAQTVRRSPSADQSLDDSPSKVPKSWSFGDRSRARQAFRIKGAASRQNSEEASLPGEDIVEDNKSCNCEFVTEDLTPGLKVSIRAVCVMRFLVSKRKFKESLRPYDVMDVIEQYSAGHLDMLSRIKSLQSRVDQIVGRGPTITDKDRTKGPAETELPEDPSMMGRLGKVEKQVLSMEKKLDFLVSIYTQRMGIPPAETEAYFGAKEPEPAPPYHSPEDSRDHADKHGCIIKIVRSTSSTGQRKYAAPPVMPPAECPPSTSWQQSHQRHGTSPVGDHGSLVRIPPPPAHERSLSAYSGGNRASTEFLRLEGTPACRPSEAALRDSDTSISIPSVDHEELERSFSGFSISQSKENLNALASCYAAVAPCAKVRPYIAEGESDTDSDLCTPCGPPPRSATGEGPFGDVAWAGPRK
# KCNQ2 block baseline – also measured in KCNQ2 block; calls as there; B-score; measured here: initial fluorescence intensity artifact check;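 brightness before thallium and not channel activity; 0 = typical well and far values either way flag optical interference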
# An asterisk follows results filed as active; i = inactive. A portion of the library; the hit share may differ from the screen's.
KCNQ2 block | KCNQ2 block baseline | molecule
i | 0.06 | CN(CC(=O)Nc1sccc1C#N)Cc1ccccc1
i | -0.21 | CCOc1cc(CNc2ccc(N(C)C)cc2)cc(Br)c1OCC(=O)NC(C)(C)C
i | -0.03 | CCOc1ccc(CN2CCN(Cc3[nH]c4ccc(OC)cc4c3C)CC2CCO)cc1 (stereo not given)
i | 0.67 | Cc1ccccc1CSc1nnc(-c2ccncc2)n1C
i | 1.19 | O=C(CSc1n[nH]c(=O)[nH]c1=O)c1ccccc1
i | 1.37 | CCOC(=O)c1nc(NCc2cccnc2)c2ccccc2n1
i | -0.13 | Cc1cccc(N2CCN(C(=S)Nc3ccc4nc5n(c(=O)c4c3)CCCCC5)CC2)c1C
i | 0.77 | Cc1c(NC2(C#N)CCCCC2)c(=O)n(-c2ccccc2)n1C
i | -1.5 | CN(C)c1nc(NC(C)(C)C)nc(SCC(=O)Nc2ccccc2)n1
i | -1.2 | Cc1nc(Nc2cccc(Cl)c2)c2oc3ccccc3c2n1
i | 0.08 | Cn1nc(C(=O)N2CCN(c3cccc(Cl)c3)CC2)c2c1-c1ccccc1S(=O)(=O)C2
i | 1.53 | Cn1c(=O)nc2n(Cc3ccccc3)c3cccc(Cl)c3cc-2c1=O
i | 0.31 | COc1ccccc1N(CC(=O)NC1CCCC1)C(=O)CCCC(=O)Nc1ccccn1
i | -1.37 | O=C(O)C1CC(O)CN1C(=O)c1ccco1 (stereo not given)
i | -0.28 | CCOc1ccc(NC(=S)N(CC)Cc2ccccc2)cc1
i | -0.04 | O=C(c1c[nH]c(C(=O)C(Cl)(Cl)Cl)c1)c1ccc(F)cc1F
i | -0.04 | CCn1c(SCC(=O)Nc2ccc(Br)cn2)nnc1C1CC1
i | -1.25 | NC(=O)CSc1oc(-c2ccco2)nc1S(=O)(=O)c1ccc(Cl)cc1
-5.8* | 0.87* | Cc1cc(NC(=O)c2cn(C3CCCCC3)c(=O)c3c2c2ccccc2n3C)no1
i | 3.25 | O=C(Nc1nccs1)c1ccc(-c2cccc([N+](=O)[O-])c2)o1
i | 1.6 | CC(C)Cn1c(/C=C/c2ccccc2)nc2ccccc21
i | -0.94 | CC(C)N(Cc1ccccc1)C(=O)C1CCCN(c2ncnc3c2nc2n3CCCCC2)C1 (stereo not given)
i | 0.63 | CCCOC(=O)Cc1c(O)c2ccccc2[nH]c1=O
i | 1.48 | CCn1c(SCC(=O)Nc2oc(C)c3c(C)n[nH]c(=O)c23)nc2sc(C)c(C)c2c1=O
i | 0.23 | CCC(=O)Nc1cc(Cl)ccc1C(=O)O
i | -1.89 | O=[N+]([O-])c1ccc(N2CCN(C(=S)Nc3ccc(F)cc3F)CC2)cc1
i | 0.39 | COc1ccccc1-n1cnnc1SCC(=O)N1CCOCC1
i | 4.2 | COc1ccc(C(=O)NNC2=NCCCCC2)cc1
i | -0.12 | COc1cccc(/C=N/NC(=O)c2nc(-c3ccccc3)cc(-c3ccccc3)n2)c1O
-6.11* | 3.5* | Cc1cc(C)cc(N(CCC#N)C(=O)CSC2=Nc3ccccc3C3CC=NN23)c1 (stereo not given)
i | -1.62 | CCOc1ccccc1NC(=O)CSc1nnnn1Cc1ccccc1
i | 1.57 | COc1ccc(NC(=O)CN(C)C(=O)c2ccccc2CCc2ccccc2)cc1
i | -1.18 | O=C(NC(Cc1ccccc1)C(=O)N1CCCC(C(F)(F)F)C1)c1ccccc1 (stereo not given)
i | 0.09 | CSc1cccc(NC(=O)c2cc(S(=O)(=O)N3CCCCC3)c[nH]2)c1
i | 0.04 | CCC1(c2ccccc2)NC(=O)N(CC(=O)Nc2ccc3c(C)cc(=O)oc3c2)C1=O (stereo not given)
i | 0.18 | Cc1cc(NC(=O)Nc2ccc(Cl)cc2)no1
i | 1.26 | COc1ccc(CCN(C(=O)C(F)(F)F)C(C(=O)NC2CCCC2)c2cccs2)cc1 (stereo not given)
i | 0.12 | Cc1ccc(SCc2ccc(C(=O)N3CCCC3)cc2)cc1
i | 0.87 | CC1=C(C(=O)OCC(C)C)C(c2cccs2)NC(=S)N1 (stereo not given)
i | -1.09 | CC(NC(=O)c1cc(S(=O)(=O)N2CCOCC2)ccc1N1CCCC1)c1ccc(Cl)c(Cl)c1 (stereo not given)
-6.52* | -0.85* | O=[N+]([O-])c1ccc(C2(O)CN(c3ccccc3)C3=[N+]2CCS3)cc1 (stereo not given)
i | 0.35 | Cc1ccc(-c2nn3c(C)nnc3c3ccccc23)cc1S(=O)(=O)N1CCN(CCO)CC1
i | -1.33 | O=C(NNC(=O)c1cccnc1)Nc1ccc(Cl)c(Cl)c1
i | 1.01 | CCOC(CC(=O)NNC(=O)c1c(-c2c(Cl)cccc2Cl)noc1C)OCC
i | 1.68 | COc1ccc(N2CCN(c3nccs3)CC2)cc1
i | 0.78 | Cc1ccc2c(C)c(C(=O)Nc3c(C)n(C)n(-c4ccccc4)c3=O)oc2c1C
i | -1.27 | COc1ccccc1CN1CCN(Cc2nc(-c3ccc(C)cc3)oc2C)CC1
i | -0.42 | COc1ccc(N(CC(=O)Nc2ccccc2OC)S(=O)(=O)c2ccccc2)cc1Cl
i | -1.8 | O=C(Nc1ccc(S(=O)(=O)Nc2nccs2)cc1)c1c(F)c(F)c(F)c(F)c1F
-6.79* | 0.54* | Cc1ccc(-c2cc(-c3ccc(Cl)cc3)c(C#N)c(N)n2)o1
i | 0.77 | Cc1cc2ccc3ccccc3c2cc1CN(C)C
i | -0.9 | Cc1nc2c(-c3ccc(F)cc3)c(C)nn2c(C)c1CCC(=O)NC(C)CCc1ccco1 (stereo not given)
-8.14* | 1.02* | O=C(/C=C/c1ccc(Cl)cc1)N(c1ccccn1)C1CCCCC1
i | 1.56 | CCn1c(SCC(=O)NCc2cccs2)nnc1-c1cccs1
i | 3.76 | O=C(/C=C/c1ccco1)NC(=S)Nc1ccc(C(=O)O)cc1
i | -0.74 | Cc1c(C(=O)Nc2ccccc2)sc2ncn(CC(=O)N3CCCCC3)c(=O)c12
i | -0.02 | O=C(CSc1ncnc2c1nnn2Cc1ccccc1F)NCC1CCCO1 (stereo not given)
i | 1.08 | Cc1cccc(N(C)S(=O)(=O)c2ccc3c(c2)NC(=O)CC(=O)N3)c1
i | 0.55 | O=C(Cc1ccccc1)NNC(=O)C1CCN(c2ncccn2)CC1
i | 1.21 | O=C(N/N=C/c1cccc(OC2CSC2)c1)c1ccccc1O

# Remaining list, next part
KCNQ2 block | KCNQ2 block baseline | molecule
i | -0.79 | Cc1ccc(CNC(=O)c2cccc(-n3cnnn3)c2)cc1
i | -0.08 | C=C1CCN([C@@H](CC(C)C)C(=O)NCc2ccc(Cl)cc2)S(=O)(=O)c2ccccc21
i | 1.13 | COCCCn1c(Cc2csc(Nc3ccccc3)n2)nnc1SCC(N)=O
i | -2.25 | CSc1cccc(NC(=S)N2CCCN(Cc3ccc(F)cc3)C2)c1
i | -1.37 | CCOC(=O)CN1CC23C=CC(O2)C(C(=O)NCc2ccc(C)cc2)C3C1=O (stereo not given)
i | 2.68 | N#CC1=C(N)SC(N)=C(C#N)C1CCC1CCCCC1
i | -0.78 | CCOc1ccc(OCc2cccc(C(=O)Nc3ccc(CN4CCCCC4)cc3)c2)cc1
i | -1.6 | O=C(CCC(=O)NC1CCCCC1)Nc1cccnc1
i | 0.29 | COCC(=O)Nc1c(C(=O)Nc2ccc3c(c2)OCO3)oc2ccccc12
i | 0.18 | CN(CC(=O)N1CCc2ccccc21)S(=O)(=O)c1cccs1
i | 0.07 | COc1ccc(NC(=O)CSc2nc3ccccc3n2-c2ccccc2)c([N+](=O)[O-])c1
i | -0.21 | COc1ccc(-c2nnn(-c3ccc(Cl)cc3Cl)c2N)cc1
i | 0.07 | CC(Sc1nc(-c2ccccc2)cc(C(F)(F)F)n1)C(=O)Nc1sc2c(c1C(N)=O)CCC2 (stereo not given)
i | 0.6 | CCOC(=O)CSc1nnc(Cc2cc(=O)[nH]c(=O)[nH]2)n1-c1cccc(OC)c1
i | 0.32 | Cc1ccc2c(c1)N(Cc1ccccn1)C(=O)C(C)O2 (stereo not given)
i | -1.49 | CCC(C)n1cnc2c(c1=O)c1nc3ccccc3nc1n2Cc1ccccc1OC (stereo not given)
i | 1.57 | CSc1nc2ccc(S(=O)(=O)N3CCCC3)cc2s1
i | 0.26 | Cc1nn(C)c(C(=O)Nc2cccc(Nc3ccccc3)c2)c1[N+](=O)[O-]
-5.61* | -1.6* | CC1(c2nnc(-c3cccc(Cl)c3)o2)CC(c2c(Cl)cccc2Cl)=NO1 (stereo not given)
i | -1.9 | CCC1CCCCN1CCCNC(=O)C1CCCN(S(=O)(=O)N2CC(C)CC(C)C2)C1 (stereo not given)
i | -0.04 | COc1ccccc1NC1=C(Cl)C(=O)N(C2CCCCC2)C1=O
i | -0.89 | COc1ccc(S(=O)(=O)Nc2cccnc2)cc1OC
i | 2.39 | CN(C)C(CNC(=O)C1CCN(S(=O)(=O)c2ccc(Cl)cc2)CC1)c1ccccc1 (stereo not given)
i | 1.47 | COc1cccc2sc(N(CCCN(C)C)C(=O)c3sc4ccccc4c3Cl)nc12
i | -0.48 | Cc1ccc(SCc2nc(-c3ccccn3)no2)cc1
i | 1.82 | COc1ccc(S(=O)(=O)NCc2csc(C)n2)cc1OC
i | -0.5 | Cc1cc(OCC(=O)N2CCN(c3ncccn3)CC2)ccc1Cl
i | 0.1 | Cc1ccc(C2/C(=C(/O)c3ccc(OC(C)C)cc3)C(=O)C(=O)N2CCN2CCOCC2)cc1 (stereo not given)
i | -1.25 | COc1ccc(-c2[nH]c3ccccc3c2SCCNC(=O)c2cc3ccccc3oc2=O)cc1
i | -0.09 | O=C(CSc1nnc(-c2cccc(S(=O)(=O)N3CCCC3)c2)n1-c1ccccc1)Nc1cccc(C(=O)O)c1
i | -0.39 | O=C(NC1CCCCC1)C(c1ccncc1)N(C(=O)c1csnn1)c1ccc(F)cc1 (stereo not given)
i | 8.52 | CC(C)/C=C1\CC/C(=C\c2ccc(N(C)C)cc2)C1=O
i | -1.45 | CCS(=O)(=O)Nc1cccc(C2=NN(S(C)(=O)=O)C(c3ccccc3)C2)c1 (stereo not given)
i | -1.48 | O=C(NCCCN1CCOCC1)c1ccc(Sc2ccc(F)cc2)c([N+](=O)[O-])c1
i | -0.42 | CCCc1cc(N2CCOCC2)n2ncc(-c3ccccc3)c2n1
i | -0.12 | Cc1sc(NC(=O)Nc2ccccc2)c(C(N)=O)c1C
i | -1.6 | O=C(NC(Cc1c[nH]c2ccccc12)C(=O)Nc1ccc(F)c([N+](=O)[O-])c1)c1cccs1 (stereo not given)
i | -0.71 | COc1ccc(C)cc1NS(=O)(=O)c1ccc2c(c1)NC(=O)C(C)S2 (stereo not given)
i | 1.77 | Cc1c(C(=O)NCCCN2CCOCC2)sc2nc(-c3ccc(F)cc3)cn12
i | -0.01 | O=C(NN=C1CCCCCC1)c1ccc(Br)o1
i | -0.75 | COc1ccc(C(=O)OCC(=O)NCC2CCCO2)cc1[N+](=O)[O-] (stereo not given)
i | 1.16 | COc1ccc(NC(=O)CSc2nnc(CNc3ccc(F)cc3)o2)c(OC)c1
i | -1.93 | O=C(N/N=C/c1cccc(O)c1)c1csc2ccccc12
i | 0.1 | CC1=CS(=O)(=O)CC1Sc1nc2ccccc2[nH]1 (stereo not given)
i | 3.61 | COc1ccc(CCNC(=O)CCCn2c(=O)c3cccn3c3cccnc32)c(OC)c1
i | 0.93 | O=C(NCc1cccs1)C(Cc1ccccc1)n1cccc1 (stereo not given)
i | -0.51 | CCOc1cc(CNCCO)cc(Br)c1OCc1ccccc1
i | -0.24 | Cc1nn(-c2ccccc2)c2nc(N)c(C#N)c(-c3ccc(F)cc3)c12
i | 0.37 | CCOc1ccccc1NC(=O)Cc1c(F)cccc1Cl
i | -1.72 | COCC(=O)N1CCCC(C(=O)c2ccc(C(F)(F)F)cc2)C1 (stereo not given)
i | -0.67 | CC[C@@H]1CC=C[C@H]2[C@H]1C(=O)N(Cc1ccccc1)[C@H]2c1cc(C)ccc1F
i | 0.16 | COc1ccc(C(CNC(=O)c2cccc(S(=O)(=O)Nc3ccc(C)cc3)c2)N2CCCCC2)cc1 (stereo not given)
i | -0.4 | COc1cccc(N/C(SCc2ccccc2Cl)=C(/C#N)C(=O)NCc2cccs2)c1
i | 28.6 | Oc1ccc(Cl)cc1Cc1cc(Cl)ccc1O
i | -2.19 | CC(=O)OC1COC(N2CCc3cc(Br)c([N+](=O)[O-])cc32)C(OC(C)=O)C1OC(C)=O (stereo not given)
i | -1.09 | COc1ccc(-c2nc(-c3ccccc3)nc(Cl)c2C#N)cc1
i | 1.75 | Cc1c(C(=O)OCC(=O)Nc2c(C)n(C)n(-c3ccccc3)c2=O)cccc1[N+](=O)[O-]
i | -1.14 | O=C(OCC(=O)N1CCCc2ccccc21)c1cccnc1Cl

# Compound activity deposited in PubChem by Johns Hopkins Ion Channel Center.
